Vif A3G: inhibitors of Vif binding to APOBEC3G peptide, primary screen, biochemical, TR-FRET, GST-Vif 1-94, biotin-A3G peptide, dose response retest (AID 1117319); TR-FRET GST-Vif / biotin-A3G peptide binding; higher % means a stronger effect; test concentration not given here; strong numbers were not always called active; inhibition, %; hits with a dose series show IC50 in µM; actives 0.57% (n = 260,000);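 active = above the screen mean plus three standard deviations and confirmed in dose response; inconclusive = results disagree or hit not tested in dose response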;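 note: Vif residues 1-94 fused to GST binding biotinylated APOBEC3G peptide 110-148; 0% = full assay without inhibitor and 100% = GST in place of GST-Vif; retest series ran down from 100 µM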
HNF4A DNA FP: change in binding of human HNF4 alpha to DNA. P41235. HNF4a-FITC DNA binding, fluorescence polarization, 1 h. activity change, % at 10 µM. actives 0.3% (n = 360,000); in the data active = activity change above about 30%, passing the limit was not always enough;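 note: controls were the assay level and a saturating level of protein; the project sought stronger binding though the title names inhibitors; some compounds called inactive have numbers as strong as hits; positive values seem to mean higher polarization but the record does not say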
Bfl-1 A1 inh: inhibitors of the anti-apoptotic protein A1, read as caspase activation; MEF A1-2A-BIM cells, Caspase-Glo 3/7 luminescence, 3 h; percent of clofoctol response, vehicle zero; AID 2462; actives 0.066% (n = 330,000); caspase activation, % (test concentration not listed);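 active = over half of replicate activation scores above 10%, or exactly half above 10 with the replicate mean above 10; inconclusive = replicate mean below 10 yet half the replicates above 10; inactive = over half of replicates below 10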;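 note: wells of about 30 µL received 50 nL stock; many hits fall short of the cut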
LANA-H2B inh: blocks KSHV LANA binding to histone H2A/H2B; cell-free LANA-H2A/H2B peptide, fluorescence polarization; inhibition, % (test concentration not listed); actives 0.6% (n = 320,000); AID 2629; in the data active = inhibition mostly above about 10%, no sharp cut-off; inactive = mostly below about 6.7%;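 note: stock transfer was 7.5 nL into about 10 µL; 0% = median of vehicle wells and 100% = median of positive control wells; one replicate is shown; the record names a cut of 25% in any replicate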
Ecoli growth: blocks Escherichia coli growth; OD600 absorbance (test concentration not listed); OD600, 23 h; hits give low values; actives 0.21% (n = 330,000);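 active = OD600 absorbance below the run mean of sample wells minus 3.6 SD, in any replicate, cut at about 0.56 in these data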;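 note: stock transfer was 300 nL into about 60 µL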
UCH37 inh: blocks the human deubiquitinase UCH37; purified proteasome/UCH37, Ub-AMC cleavage fluorescence; inhibition, % (test concentration not listed); actives 0.33% (n = 330,000); AID 588478;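 active = mean of two replicates above 20%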;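 note: 0% = compound-free wells with enzyme and 100% = wells lacking proteasome; stock transfer was 100 nL into about 20 µL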
Target sequence (Q9Y5K5 whole entry, looked up): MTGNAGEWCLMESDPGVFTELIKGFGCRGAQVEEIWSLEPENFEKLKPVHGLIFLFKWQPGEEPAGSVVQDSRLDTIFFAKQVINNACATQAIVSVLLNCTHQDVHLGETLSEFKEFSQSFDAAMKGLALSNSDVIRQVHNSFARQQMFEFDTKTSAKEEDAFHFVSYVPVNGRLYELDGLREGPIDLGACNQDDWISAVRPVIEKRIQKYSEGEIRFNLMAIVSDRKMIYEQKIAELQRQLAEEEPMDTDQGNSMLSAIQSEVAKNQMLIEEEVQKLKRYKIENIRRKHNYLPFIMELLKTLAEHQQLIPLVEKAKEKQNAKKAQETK
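Assay system: Proteasome-bound UCH37. Buffer or medium: pH 7.4 Tris-HCl (50 mM) with ovalbumin, ATP-MgCl2, DTT. Incubation: 30 min preincubation with enzyme, 25 min cleavage at room temperature. Measured by: fluorescence, ex 355 nm, em 460 nm. Read-out basis: percent inhibition. Control set: wells without proteasome as full block, compound-free enzyme plus substrate as uninhibited.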
B2AR ag: agonists of human beta-2 adrenergic receptor inducing internalization; P07550; Am2.2-beta2AR cells, FAP receptor internalization, flow cytometry; reference of the scale not given here; response, % (concentration not given with the values); actives 0.43% (n = 340,000);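 active = response above a set limit, near 3 SD of response in nonfluorescent compounds, cut at about 42% in these data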;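 note: stock transfer was 100 nL into about 11 µL; a reference agonist was the positive control; negative values mostly stem from fluorescent compounds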
Target sequence (P07550 whole entry, looked up): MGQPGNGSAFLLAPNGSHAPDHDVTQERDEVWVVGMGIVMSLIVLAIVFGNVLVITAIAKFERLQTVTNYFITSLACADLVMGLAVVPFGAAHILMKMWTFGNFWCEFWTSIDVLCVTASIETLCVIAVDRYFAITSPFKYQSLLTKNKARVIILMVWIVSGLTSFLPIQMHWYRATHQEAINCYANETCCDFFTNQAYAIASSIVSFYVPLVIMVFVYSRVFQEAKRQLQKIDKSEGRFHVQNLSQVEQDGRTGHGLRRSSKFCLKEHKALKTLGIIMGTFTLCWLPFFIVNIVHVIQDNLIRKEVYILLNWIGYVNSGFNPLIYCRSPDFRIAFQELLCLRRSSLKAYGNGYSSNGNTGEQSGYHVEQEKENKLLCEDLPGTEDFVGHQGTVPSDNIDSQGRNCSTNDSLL
* hit, by the source's call; i = inactive; ? = inconclusive; · = no result given. This is a random part of the collection. Share with any hit: about 2.1%.

SMILES	Vif A3G	HNF4A DNA FP	Bfl-1 A1 inh	LANA-H2B inh	Ecoli growth	UCH37 inh	B2AR ag
COc1ccc(C(=O)Nc2ccc(S(=O)(=O)N3CCCCC3C)cc2)c(OC)c1OC (stereo unspecified)	-5%	-0.8	-0.4	0.7	0.71	1.5	0
Cc1nc(SC2CC(=O)N(c3cc(Cl)cc(Cl)c3)C2=O)nc2c1CCCC2 (stereo unspecified)	-4%	1.8	0.6	-2.2	0.73	6.0	3
Cc1cccc(C)c1NC(=O)C1CCCNC1 (stereo unspecified)	?	11	-0.7	-5.0	0.71	-1.2	0
CCN(CC(=O)Nc1ccc(NC(C)=O)cc1)C(=O)CCCc1c[nH]c2ccccc12	1%	0.5	0.6	4.6	0.63	1.2	2
Cc1cccc(N(CC(=O)NC2CCCCC2)C(=O)c2ccc(C)s2)c1	21%	6.2	-0.2	4.1	0.65	2.9	-4
COc1ccc(/C=N/NC(=O)c2ccc(COc3cccc4cccnc34)cc2)cc1O	?	2.8	-0.7	-0.9	·	·	30
O=C(Cn1cc([N+](=O)[O-])ccc1=O)N1CCc2ccccc2C1	·	1.2	-1.3	2.1	0.72	5.4	-5
CC1=C(C(=O)Nc2ccccc2C)C(c2cccnc2)n2nc(CCCO)nc2N1 (stereo unspecified)	-3%	1.0	0.3	-5.4	0.79	1.6	10
COc1ccc(C(=O)N2CCCc3ccccc32)cc1	-2%	-1.2	1.4	-0.9	0.66	-0.6	2
COc1ccc2c(c1)c(CC(=O)OC(C)C(=O)N(C)C)c(C)n2C(=O)c1ccc(Cl)cc1 (stereo unspecified)	·	2.8	0.2	0.9	0.69	3.5	4
CC(=O)Nc1ccc(Oc2sc(C(=O)c3ccccc3)c(N)c2C#N)cc1	-10%	-2.4	0.0	-0.4	0.74	5.5	13
COc1ccc(C2C(C(=O)/C=C/c3ccco3)=C(O)C(=O)N2CCN2CCOCC2)cc1 (stereo unspecified)	?	-0.3	0.2	3.2	0.7	6.4	-14
CC(=O)Nc1cc(C(=O)N(C)Cc2ccccc2)ccc1S(=O)(=O)c1ccc(C)cc1	-3%	1.1	0.6	-5.2	0.69	2.5	-1
COc1ccc(C(C)=O)cc1CSc1nncn1-c1ccccc1	·	2.4	0.9	2.0	0.68	4.0	2
O=C(NCc1ccc(F)cc1)C1CCCN1C(=O)NCc1ccccc1 (stereo unspecified)	67%	0.7	0.5	2.4	0.69	1.3	3

Reprinted from the part before: two compounds, followed by the next part.
SMILES	Vif A3G	HNF4A DNA FP	Bfl-1 A1 inh	LANA-H2B inh	Ecoli growth	UCH37 inh	B2AR ag
COc1ccc(C(C)=O)cc1CSc1nncn1-c1ccccc1	·	2.4	0.9	2.0	0.68	4.0	2
O=C(NCc1ccc(F)cc1)C1CCCN1C(=O)NCc1ccccc1 (stereo unspecified)	67%	0.7	0.5	2.4	0.69	1.3	3
Oc1c(Br)cc(Br)cc1CNc1cccc2cccnc12	22%	3.1	-0.8	-4.9	0.64	6.4	13
O=C(O)C1CC=CCC1C(=O)N1CCN(c2nc(-c3ccccc3)c3ccccc3n2)CC1 (stereo unspecified)	-1%	0.0	-0.9	-9.8	·	·	-7
Cc1ccccc1N1CC(C(=O)Nc2nnc(SCCC3OCCO3)s2)CC1=O (stereo unspecified)	18%	-12	-0.2	0.9	0.72	-0.5	-2
CCOc1ccc(NC(=O)c2ccc3[nH]c(=O)c(=O)[nH]c3c2)cc1	-5%	-3.0	1.3	-0.2	0.7	4.8	8
CC(=O)c1cccc(Nc2c([N+](=O)[O-])c(=O)oc3ccccc23)c1	8%	1.9	-1.1	0.0	0.68	6.6	-3
CC1CN(C(=O)c2cccc(S(=O)(=O)N3CCN(c4ccccc4)CC3)c2)CC(C)O1 (stereo unspecified)	-4%	2.5	0.6	-0.2	0.7	1.9	-2
O=C(Nc1ccccc1Cl)c1ccc2nsnc2c1	1%	-0.9	-9.7	-1.5	0.7	-0.6	2
CS(=O)(=O)N1CCCC(C(=O)NCCc2ccccc2)C1 (stereo unspecified)	?	-1.3	-0.7	-9.1	0.7	2.2	-1
O=C(OC1CCOC1=O)c1ccc(Cl)c(S(=O)(=O)N2CCCCC2)c1 (stereo unspecified)	8%	3.0	-0.8	·	0.67	1.0	3
COCCn1c(SCC(=O)Nc2ccccc2OC)nc2ccccc2c1=O	·	-0.7	1.0	-3.1	0.68	5.5	-4
COc1ccccc1Oc1ccc2c(c1)C(=O)N(CC1CCCO1)C2=O (stereo unspecified)	-2%	-0.4	-0.9	-0.6	0.69	5.3	0
CCN(C(=O)COC(=O)C1CCN(S(=O)(=O)c2ccc3c(c2)OCCO3)CC1)C1CCCCC1	-3%	5.3	-0.2	-1.1	0.67	-1.8	1
COc1ccc(C(=O)C2CCN(C(=O)c3ccc(OC)cc3)CC2)cc1	·	2.1	-0.5	-2.6	0.63	2.4	-3
Cc1cnn(-c2cc(N/N=C/c3ccc(F)cc3)ncn2)c1	0%	2.0	0.0	2.7	·	·	8
O=C(Nc1ccc(Cl)cc1Cl)c1ccc2c(c1)OCCO2	0%	1.0	-7.3	1.7	0.64	-2.2	-2

Compound profiles, as listed above:
`CC1=C(C(=O)Nc2ccccc2C)C(c2cccnc2)n2nc(CCCO)nc2N1` (stereo unspecified) is listed with Vif A3G: -3%; HNF4A DNA FP: 1.0; Bfl-1 A1 inh: 0.3; LANA-H2B inh: -5.4; Ecoli growth: 0.79; UCH37 inh: 1.6; B2AR ag: 10
`Cc1nc(SC2CC(=O)N(c3cc(Cl)cc(Cl)c3)C2=O)nc2c1CCCC2` (stereo unspecified) is listed with Vif A3G: -4%; HNF4A DNA FP: 1.8; Bfl-1 A1 inh: 0.6; LANA-H2B inh: -2.2; Ecoli growth: 0.73; UCH37 inh: 6.0; B2AR ag: 3
`O=C(Nc1ccccc1Cl)c1ccc2nsnc2c1` is listed with Vif A3G: 1%; HNF4A DNA FP: -0.9; Bfl-1 A1 inh: -9.7; LANA-H2B inh: -1.5; Ecoli growth: 0.7; UCH37 inh: -0.6; B2AR ag: 2

The list goes on:
SMILES	Vif A3G	HNF4A DNA FP	Bfl-1 A1 inh	LANA-H2B inh	Ecoli growth	UCH37 inh	B2AR ag
CC1CCCCC1NC(=O)CCCCCn1c(=S)[nH]c2ccccc2c1=O (stereo unspecified)	0%	2.5	-0.1	0.9	0.68	1.2	4
Cc1nn(Cc2ccc(F)cc2)c(C)c1NC(=O)c1nn(C)cc1Cl	11%	0.0	-0.3	-1.3	0.68	3.8	-2
COCC(C)n1c(COc2ccccc2F)nnc1SCC(=O)c1c(N)n(C)c(=O)n(C)c1=O (stereo unspecified)	6%	-0.5	-1.9	4.0	0.71	2.2	-6
Cc1c(CCC(=O)NCCCCCC(=O)O)c(=O)oc2c(C)c3oc4c(c3cc12)CCCC4	-4%	-5.3	-0.1	-2.6	0.65	-41	-4
COc1ccc(C(=O)NC(C)CCn2cccn2)cc1OC1CCN(C(C)C)CC1 (stereo unspecified)	·	0.2	1.3	4.9	0.7	-2.0	-1
O=C(C[C@H]1C/C=C/CC[C@@H](Cc2ccc(F)cc2)C(=O)O[C@@H](c2ccccc2)CNC1=O)NCCO	·	0.2	0.3	1.8	·	1.7	-2
Cc1ccc(/C=N/NC(=O)Cn2cnc3ccccc32)o1	10%	-3.9	-4.0	5.9	·	·	6
O=C1CC(Sc2ncccc2C(=O)O)C(=O)N1 (stereo unspecified)	5%	-0.9	0.6	-1.8	0.71	1.4	-2
CC(=O)Nc1nc(C)c(-c2csc(Nc3cccc(C(C)=O)c3)n2)s1	-3%	-4.5	0.2	-0.3	0.69	2.3	24
C[C@H](CO)N1C[C@H](C)[C@@H](CN(C)S(=O)(=O)c2ccccc2)Oc2ccc(NC(=O)Cn3cnnn3)cc2C1=O	·	2.0	0.2	0.7	0.75	-4.7	7
O=C(C1CCCCC1)N1CCCC(c2nc3c(nnn3Cc3ccccc3)c(=O)[nH]2)C1 (stereo unspecified)	2%	-0.8	-0.4	2.9	0.66	1.1	-7
Cc1cc(=O)[nH]c(SCC(=O)NCC2CCCO2)n1 (stereo unspecified)	-9%	1.9	-0.6	3.8	0.7	4.8	-1
O=C(O)[C@H](Cc1ccccc1)Nc1ccc([N+](=O)[O-])cn1	-7%	-1.1	-0.3	3.5	0.64	7.8	0
O=C(/C=C/c1cccc(C(F)(F)F)c1)N1CCN(c2ccccn2)CC1	9%	-0.7	0.2	7.9	0.64	0.7	9
Nn1c(SCC(=O)Nc2ccc3c(c2)OCO3)nnc1-c1ccncc1	6%	-0.5	-0.1	5.8	·	3.6	1
CCOC(=O)c1c(CN2CCC(C)CC2)oc2ccc(OC)cc12	?	2.5	-0.3	-3.8	0.68	-0.6	-4
COc1ccc2oc(=O)c(C(=O)OCC(=O)c3ccc([N+](=O)[O-])cc3)cc2c1	-2%	·	0.6	-3.4	0.7	-26	·
COCCC(=O)N1CCC(Oc2ccc(C(=O)NCc3nccn3C)cc2)CC1	·	-1.8	0.1	5.0	0.73	1.8	2
CC(Oc1ccccc1)C(=O)Nc1nnc(S(=O)(=O)N2CCCCCC2)s1 (stereo unspecified)	·	3.0	0.3	-1.6	0.69	-1.6	2
O=C(NNS(=O)(=O)c1c(F)cc(F)c(Cl)c1F)C12CC3CC(CC(C3)C1)C2	·	4.6	0.5	4.5	·	·	·
O=C(OCc1cc(-c2ccccc2)no1)c1ccc2ccccc2n1	-5%	-5.6	-0.4	1.8	0.69	3.7	-7
COc1cc(C2C(S(=O)(=O)c3ccccc3)CON2C)ccc1OCc1ccc(F)cc1 (stereo unspecified)	3%	·	0.5	-7.6	0.7	3.1	·
O=C(CN1CCC(c2nc3ccccc3[nH]2)CC1)Nc1ccc2c(c1)OCO2	-2%	-0.7	1.0	-0.5	0.73	4.2	-15
COc1ccc(-c2nnn(CCC(=O)O)n2)cc1	3%	-0.5	-1.2	1.3	0.68	2.3	9
CSc1ccc(/C=C(\C(=O)O)c2ccc(S(=O)(=O)N3CCCC3)s2)cc1	?	-1.0	1.1	4.6	0.68	-9.9	-1
CCOc1ccc2oc(-c3ccccc3)c(C(=O)N3CCN(CCO)CC3)c2c1	5%	-0.3	·	·	0.69	·	-2
Cc1cc(C)n2nc(C(=O)Nc3ccc4c(c3)OCO4)nc2n1	12%	3.6	0.9	0.3	0.74	3.3	-3
C[C@]12c3[nH]c4ccccc4c3CCN1C(=O)C(CC(=O)NCc1ccco1)C[C@@H]2C(=O)N1CCCCC1 (stereo partly specified)	-3%	14	0.4	i	0.69	0.3	-8
Cc1noc(C)c1NC(=O)Nc1cccc2c1O[C@H](CN(C)C(=O)Nc1ccccc1)[C@@H](C)CN([C@H](C)CO)C2=O	·	-0.5	0.2	-1.1	·	2.0	-3
CN(CC(=O)Nc1ccc(F)cc1)C(=O)C1CCN(S(=O)(=O)c2ccc3c(c2)OCCO3)CC1	1%	-1.0	-0.2	0.2	0.66	4.9	-3
CCCCN1C(=O)C(O)=C(C(C)=O)C1c1ccc(OC)cc1OC (stereo unspecified)	-8%	1.4	0.9	3.8	0.71	7.7	1
CCOc1ccccc1CNC(=O)C(C)n1nc(C)c2c(C)n(-c3ccccc3)nc2c1=O (stereo unspecified)	·	2.3	0.2	3.2	0.71	4.7	0
COc1ccc(/C=C/c2nc(-c3ccccc3O)n(-c3ccccc3)n2)cc1	-18%	3.2	0.1	-3.3	·	4.1	9
COc1ccccc1Cn1c(=O)c2ccccc2n2c(SCc3csc(C)n3)nnc12	0%	4.0	0.9	0.7	0.69	2.7	-14
